Screening data as filed in PubChem BioAssay.
MT1-MMP act inh – blockers of MT1-MMP proenzyme processing, primary screen, HT1080 RFP-PRO-GFP cells, GFP/RFP fluorescence. hit rate 0.061% among 360,000. AID 651647, 2012. GFP/RFP ratio change, % at 20 µM. Matrix metalloproteinase-14 (Homo sapiens), P50281. GFP/RFP ratio fluorescence, overnight; percent of plate control window, DMSO zero;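 active = GFP/RFP ratio change of at least 30% with cell ATP level not reduced by more than half and red fluorescence within 50% of control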; note: strong numbers were not always called active
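Material: RFP-PRO-GFP reporter HT1080 cells. Dosing: single-point 20 µM compound, 1% DMSO. Controls: DMSO and RFP-L50D-GFP cell wells. Timing: cells overnight before dosing, compound overnight, 37 °C, 5% CO2. Measure: GFP/RFP fluorescence ratio.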
UUG fidelity – modulators of yeast start codon fidelity, primary screen, whole organism, S. cerevisiae, single point, plate reader; S. cerevisiae UUG-firefly luciferase reporter, luminescence/redox ratio; activity score, % at 18.7 µM; hit rate 0.13% among 350,000; AID 602363, 2012;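 active = replicate mean at a twofold rise or more, about +100% in these data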;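 note: firefly luciferase made from a UUG start codon reports start codon fidelity; reporter light over untreated wells divided by growth signal over untreated wells; some hits fall short of that in this replicate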
eIF4H inh – human eIF4H binding inhibitors, primary screen, translation initiation inhibitor project, biochemical, uHTS, fluorescence polarization; inhibition, % at 35 µM; hit rate 0.94% among 290,000; AID 2012, 2009; eIF4H fluorescence polarization binding assay;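 active = 50% or more with normal probe brightness, or confirmed in later tests; about a fifth of its hits are not listed in these tables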;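 note: calls also rest on retests at 20 µM and on dose response follow-up; 0% = protein and probe with vehicle and 100% = probe without protein; strong numbers were not always called active; many hits fall short of the cut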
Rce1 inh – yeast Rce1p protease inhibitors, primary screen, biochemical, fluorescence, cell-free homogeneous; hit rate 0.27% among 290,000; yeast membranes, quenched prenylated peptide cleavage fluorescence; CAAX prenyl protease 2 (Saccharomyces cerevisiae (strain ATCC 204508 / S288c)), Q03530; calls only; AID 2563, 2010;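 active = fall in fluorescence gain of 50% or more versus controls, with final raw signal at or below 3038400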;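 note: plate controls were neutral control wells for no effect and wells lacking membranes for full effect; tested at 10 µM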
Target sequence (Q03530 whole entry, looked up): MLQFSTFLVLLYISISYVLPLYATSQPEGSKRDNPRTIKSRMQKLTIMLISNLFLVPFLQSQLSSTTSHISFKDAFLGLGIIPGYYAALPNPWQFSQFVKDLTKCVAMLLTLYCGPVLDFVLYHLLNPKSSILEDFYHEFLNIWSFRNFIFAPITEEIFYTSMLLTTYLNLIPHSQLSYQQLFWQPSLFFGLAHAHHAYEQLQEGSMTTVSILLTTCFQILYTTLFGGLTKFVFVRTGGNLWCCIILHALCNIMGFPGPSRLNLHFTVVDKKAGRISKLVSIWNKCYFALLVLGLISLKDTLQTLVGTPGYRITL
HIV Env fusion – inhibitors of HIV-1 Env-driven cell-cell fusion, primary screen, HeLa-JRFL effector, CEM21 target cells, luciferase; AID 651610, 2012; inhibition, % at 12.3 µM; hit rate 1.1% among 360,000;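 active = mean replicate inhibition score of at least 50 and every replicate individually at or above 50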;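 note: 0% = plate neutral controls and 100% = maraviroc near 300 nM; one replicate is shown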
CSC inhib – cancer stem cell viability inhibitors, primary screen, luminescence; cancer stem cell-like cells viability; inhibition, % at 7.5 µM; hit rate 1.1% among 300,000;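 active = mean at 75% or more and at least half the replicates too; tested in HMLE shEcad cells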;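 note: 0% = median of negative and 100% = median of positive control wells; the first replicate is given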
PABP FP inh – PABP poly(A) RNA binding inhibitors, primary screen, biochemical, fluorescence polarization, uHTS; Polyadenylate-binding protein 1 (Homo sapiens), P11940; inhibition, % at 35 µM; hit rate 1% among 290,000;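 active = 50% or more with normal probe brightness, or confirmed in later tests; about a fifth of its hits are not listed in these tables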;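 note: calls also rest on retests at 20 µM and on dose response follow-up; controls were probe without protein and protein plus probe with vehicle; some compounds called inactive have numbers as strong as hits; many hits fall short of the cut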
eIF4H inh retest – recorded beside eIF4H inh, whose call it bears; inhibition, %; compound at 20 µM; confirmation average;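 mean of two retest wells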
PABP FP inh retest – second read-out of PABP FP inh, no call of its own (marks repeat the call); inhibition, %; compound at 20 µM; confirmation repeats;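 mean of two retest wells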
MT1-MMP act inh RFP – also measured in MT1-MMP act inh; calls as there; RFP signal change, %; measured here: RFP expression control read;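 0 = vehicle wells; hits needed this value within 50% of zero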
The depositor's hits bear a star; i = inactive; · = not tested or not shown; & = joins results of further samples; [ ] = remark or other dose.

SMILES | MT1-MMP act inh | MT1-MMP act inh RFP | UUG fidelity | eIF4H inh | Rce1 inh | HIV Env fusion | CSC inhib | PABP FP inh | others
CC(C)Cn1c(-c2nn(C)cc2Cl)n[nH]c1=S | 4 | 6 | -19 | 8 | · | · | -9 | 13
O=C1Nc2ccccc2C12OCC1(CO2)COC2(OC1)C(=O)Nc1ccccc12 (stereo unspecified) | -1 | 2 | 4 | -8 | i | · | 7 | 1
COC(=O)c1ccc(C(NC(=O)OCc2ccccc2)/C(F)=C/[C@@H](C)C(=O)O)cc1 (stereo partly specified) | -1 | 4 | 18 | · | i | 6 | 1 | ·
Cc1ccc(C(=O)Nc2cccc([N+](=O)[O-])c2)cc1S(=O)(=O)Nc1cccc(C(=O)O)c1 | -3 | 0 | · | 14 | i | -6 | 3 | -6
Cc1ccsc1C(=O)NNC(=S)NCC(C)C | · | · | · | 10 | i | · | · | 0
COc1ccc2cc(Br)ccc2c1CC(=O)N(C)C | 2 | -1 | -4 | -3 | i | 19 | -8 | -6
CCC(Sc1ncccc1C(=O)Oc1cccc([N+](=O)[O-])c1)C(=O)Nc1ccccc1OC (stereo unspecified) | · | · | · | -9 | i | 4 | 9 | -7
CSCCOC(=O)COc1ccc(/C=N/NC(=O)c2nn(C)cc2Cl)cc1 | 4 | 2 | · | -1 | i | -14 | -5 | 32
O=C(NCCC1=CCCCC1)c1cnccn1 | 0 | 6 | -18 | -10 | i | · | 13 | -2
Cc1ccc(Nc2nnc(-c3ccc4c(c3)OCO4)o2)c(C)c1 | 4 | 5 | -18 | 20 | i | -73 | 31 | 12
CCOC(=O)C1(Cc2ccccc2)CCCN(CCO)C1 (stereo unspecified) | 2 | 4 | · | 1 | i | 20 | -22 | -6
COc1cc(/C=N/NC(N)=O)ccc1OCC(=O)Nc1ccc(C)c(C)c1 | 4 | 7 | -3 | 10 | i | 10 | 1 | -3
COc1ccc(/C=C/C(=O)NCCCN2CCOCC2)cc1 | 3 | 0 | 18 | -2 | i | -17 | -12 | -7
O=C(COC(=O)c1ccc(Cl)nc1)NCc1ccc2c(c1)OCO2 | -4 | 0 | · | 18 | i | · | -7 | 9
Cc1c(-c2ccccc2)oc2c(C(=O)OCC(=O)Nc3ccc(C(N)=O)cc3)cccc2c1=O | 1 | 1 | · | 1 | i | 31 | -6 | 10
CN(C(=O)c1cc([N+](=O)[O-])ccc1NCc1cccnc1)c1ccccc1 | -2 | -4 | -18 | 9 | i | 31 | -9 | 6
CCC(Sc1nc(C)cc(C)n1)C(=O)NC1=NN=C(c2ccc(C)cc2)CS1 (stereo unspecified) | -32 | -17 | -9 | 6 | i | · | 45 | -2
COC(=O)Cc1c(C)nc2nc(Cc3ccccc3)[nH]n2c1=O | 3 | 3 | -21 | 1 | i | · | -3 | 8
Cc1ccccc1N(C(=O)CNC(=O)c1cccs1)C(C(=O)NC1CCCC1)c1ccncc1 (stereo unspecified) | -3 | 0 | -7 | -4 | i | 11 | · | -2
COC(=O)c1ccc(CSc2nc3c(cnn3-c3ccc(F)cc3)c(=O)[nH]2)o1 | -1 | -3 | -13 | 1 | · | · | 5 | -5
CN(CCC1CCCCO1)C(=O)c1cc(COc2ccc(F)cc2F)on1 (stereo unspecified) | 5 | 1 | 4 | -4 | i | · | 13 | 1
Cc1cc(C)c(NC(=O)CN2C(=O)NC3(CCc4ccccc43)C2=O)c(Cl)c1 (stereo unspecified) | 4 | -1 | -2 | · | · | · | 4 | ·
CC(=O)N1CCCN(C(=O)c2cc(COc3c(F)cccc3F)on2)CC1 | 3 | 11 | -3 | -6 | i | · | -3 | 10
Cc1cc(C)nc(N/N=C/c2sccc2C)n1 | 1 | -5 | · | -9 | i | -34 | -9 | -2
NC(=O)c1ccccc1N=Cc1ccc2ccccc2c1 | -4 | -6 | · | 10 | i | 6 | -6 | 10
Cc1ccccc1NC(=O)Cc1nc(COC(=O)c2nccnc2N)cs1 | 4 | 9 | -16 | · | · | -24 | · | ·
O=C(Nc1ccc(S(=O)(=O)N2CCOCC2)cc1)c1ccccc1Br | 1 | -1 | -4 | -11 | i | -53 | -2 | -7
O=C(NCCCn1ccnc1)c1cn(-c2ccccc2)nc1-c1ccccc1 | -3 | -3 | -15 | 10 | i | · | 2 | 8
COc1ccc(-c2nn3cnnc3s2)cc1OC | 6 | 1 | -17 | 5 | i | i | 8 | -1
COC(=O)c1cc(C(=O)OC)n(Cc2ccc(C)cc2)c1C | -1 | -2 | · | 34 | i | -7 | 5 | -8
C=CCOC(=O)C1=C(C)NC(SCC(=O)N(CC)CC)=C(C#N)C1c1ccco1 (stereo unspecified) | 5&3 | 5&-6 | -23&-12 | -12 | · | 5 | -18 | -1
N#C/C(=C/c1ccc(OC(=O)c2ccc(Br)s2)cc1)c1nc2ccccc2[nH]1 | -36 | -5 | -11 | · | · | -32 | · | ·
Cc1cc(C)nc(N/N=C/c2ccc3c(c2)OCCO3)n1 | -4 | -3 | -28 | -4 | i | -13 | -14 | -5
CCOC(=O)C(=CNc1ccc(C#N)cc1)C(=O)OCC | 0 | 5 | · | 2 | i | -2 | -1 | -1
O=C(COC(=O)Cn1cnc2ccccc21)NCCc1ccccc1 | 3 | 3 | -6 | 2 | i | · | 0 | -2
CCC(=O)Nc1ccc2c(c1)nc(CN1CCCCC1)n2C | 1 | 2 | -17 | -1 | i | -1 | -16 | -6
C=C(C)CNC(=S)N1CCN(C(c2ccccc2)c2ccccc2)CC1 | -2 | 3 | -26 | -4 | i | -6 | · | 14
O=C(Nc1cc(S(=O)(=O)N2CCOCC2)ccc1N1CCCCC1)c1cc(-c2ccccn2)nc2ccccc12 | 0 | 4 | · | -8 | i | -24 | -6 | 7
c1ccc(-c2cncnc2)cc1 | -6 | 1 | -11 | · | · | 31 | -9 | ·
O=C(N1CCOCC1)N(Cc1ccco1)CC1CCCO1 (stereo unspecified) | -1 | 4 | -10 | 2 | i | · | -14 | 3

Four entries picked at random from those above:
SMILES | MT1-MMP act inh | MT1-MMP act inh RFP | UUG fidelity | eIF4H inh | Rce1 inh | HIV Env fusion | CSC inhib | PABP FP inh | others
O=C(Nc1cc(S(=O)(=O)N2CCOCC2)ccc1N1CCCCC1)c1cc(-c2ccccn2)nc2ccccc12 | 0 | 4 | · | -8 | i | -24 | -6 | 7
N#C/C(=C/c1ccc(OC(=O)c2ccc(Br)s2)cc1)c1nc2ccccc2[nH]1 | -36 | -5 | -11 | · | · | -32 | · | ·
O=C(N1CCOCC1)N(Cc1ccco1)CC1CCCO1 (stereo unspecified) | -1 | 4 | -10 | 2 | i | · | -14 | 3
C=CCOC(=O)C1=C(C)NC(SCC(=O)N(CC)CC)=C(C#N)C1c1ccco1 (stereo unspecified) | 5&3 | 5&-6 | -23&-12 | -12 | · | 5 | -18 | -1

Later entries.
SMILES | MT1-MMP act inh | MT1-MMP act inh RFP | UUG fidelity | eIF4H inh | Rce1 inh | HIV Env fusion | CSC inhib | PABP FP inh | others
Cn1c(SCC(=O)NCc2ccc3c(c2)OCO3)ncc(C(=O)Nc2ccc(F)cc2)c1=O | -5 | -2 | · | · | i | 3 | 3 | ·
Cc1ccc(Nc2nc(-c3ccccc3)cs2)nc1 | -1 | -2 | -43 | -19 | i | -165 | · | -6
c1ccc(Oc2cc(-n3cncn3)ncn2)cc1 | -3 | 0 | -13 | -7 | i | · | -7 | -5
NC(N)=N/N=C/c1ccc(Cl)cc1Cl | 1 | -5 | · | 3 | i | 14 | 7 | -2
CCc1nc2ccccc2nc1N1CCN(S(=O)(=O)c2ccc(Cl)cc2)CC1 | 0 | 3 | · | -3 | i | 15 | 21 | 8
Clc1ccc(-n2nnnc2-c2cnc3ccccc3c2-c2ccccc2)cc1 | -11 | -10 | · | -12 | i | 13 | 8 | 0
Cc1ncc([N+](=O)[O-])n1CCOC(=O)NC(Nc1ccc(F)cc1)C(Cl)(Cl)Cl (stereo unspecified) | -10 | -4 | -8 | -17 | i | 30 | -1 | -1
COC(=O)CCS(=O)(=O)c1ccc(Cl)c(Cl)c1 | · | · | · | -5 | i | -21 | 6 | -1
NC(=O)C1=C[C@H](c2ccc(Br)cc2)C[C@H](OCc2ccc(CO)cc2)O1 | 4 | -2 | 14&6 | 7 | i | -9[16.7 µM] | 1 | -12
O=C(O)c1c[nH]c(=S)n1-c1ccc(F)cc1 | -1 | 3 | -24 | -2 | i | · | 3 | 4
CC(=O)c1cc2c(cc1NC(=O)CN1Cc3ccccc3C1=O)OCO2 | -3 | 2 | -7 | -12 | i | -12 | -15 | 5
O=C(NC(=S)Nc1cccc(S(=O)(=O)NC2=NCCC2)c1)c1cc(-c2ccco2)nc2ccccc12 | -33 | -9 | -10 | 76 | i | -273 | · | 38 | eIF4H inh retest=1;PABP FP inh retest=1
O=C(COC(=O)c1ccccc1Cl)Nc1ccc2[nH]c(=O)[nH]c2c1 | 4 | 4 | -8 | · | i | · | -10 | ·
COc1ccc(CN(C(=O)c2snc(C(N)=O)c2N)C(C)C(=O)NCc2ccc(F)cc2)cc1 (stereo unspecified) | -1 | -3 | -17 | -19 | i | 1 | 14 | -1
COc1ccc(NC(=O)Cc2nnc(SCC(=O)c3ccccc3)n2C)cc1 | 0 | 0 | -20 | -2 | i | 4 | · | 7
Cc1ccc(NC(=O)c2cc(C(=O)c3cc(Cl)ccc3O)cn(-c3ccc(C)cc3)c2=O)cc1 | -22 | -21 | -31 | -14 | i | 22 | -6 | -5
Cc1c(-c2ccccc2)nc(N)c(C#N)c1-c1cccs1 | -4 | -1 | 8 | 7 | i | 12 | -8 | -3
CC(=O)N(/N=C1\Sc2ccccc2C1=O)c1ccccc1 | -4 | 11 | 6 | -4 | · | · | · | -1
CC(C)c1nc(SCC(=O)c2ccc(F)cc2)c2ccccc2n1 | 0 | -1 | · | -4 | i | 2 | 31 | 5
CCCCCCCCC#Cc1nc(C)ccc1OC | 1 | -5 | -9 | · | · | 14 | · | ·
CCOC(=O)CNC(=O)c1sc(NC(=O)c2ccccc2)nc1C | 5 | -2 | -5 | 1 | · | -9 | · | 11
C=CCNc1nc2ccccc2nc1NS(=O)(=O)c1ccc(Cl)cc1 | 0 | -5 | -8 | -12 | i | 10 | 10 | 16
COC(C#CCCN(C)C)(c1ccccc1)c1ccccc1 | -8 | -2 | · | -10 | i | -8 | 8 | -13
COc1cccc(-c2nn(-c3ccc(C)cc3)cc2C(=O)NCC2CCCO2)c1 (stereo unspecified) | 7 | -3 | 9 | · | i | 1 | -11 | ·
O=C(CSc1nc(=O)n(CCCN2CCOCC2)c2c1CCCC2)Nc1ccc(F)c(F)c1 | 2 | 2 | 2 | · | i | -10 | 3 | ·
CCC(NC(=O)CCc1nnc(-c2cc(C)on2)o1)C12CC3CC(CC(C3)C1)C2 (stereo unspecified) | -2 | -3 | 6 | 34 | i | 23 | 18 | -10
CC(C)CCOCC1CC2(CC(C)(c3csc(N)n3)OC2=O)C(=O)O1 (stereo unspecified) | 0 | 2 | -14 | -12 | i | · | -14 | -7
Cc1ccc(C(=O)NC2CCCCCCC2)cc1S(=O)(=O)N1CCOCC1 | 1 | -6 | -7 | · | · | -11 | · | ·
COc1ccc(C(C)=O)cc1COC(=O)CCNS(=O)(=O)c1ccc(C)cc1 | 0 | 6 | · | · | i | -30 | -12 | ·
CCN1C(=O)c2ccc(C(=O)O)cc2C1=O | 2 | 4 | -22 | -6 | i | · | 9 | 3
